# Screening results deposited in PubChem by National Center for Advancing Translational Sciences (NCATS).
# YjeE inh: YjeE (TsaE) inhibition, E. coli; purified YjeE, fluorescence polarisation of a bound ADP probe; 0.05% of 71,000 active; Potency, µM; P0AF67; active = well fitted falling curve; inconclusive = weaker or top-dose-only fall, or a rising curve; inactive = flat or poorly fitted curve;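 also: top concentration of the series not given in the record; excess ADP was the control for the full effect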
#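 Fluorescence polarization of a BODIPY Texas Red–ADP probe (2 uM) bound to purified YjeE (10 uM) was read after 15 min room-temperature incubation with compounds. Loss of polarization marks inhibitors; ADP serves as titrated control.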
# Bst PK mod: alters activity of Bacillus stearothermophilus pyruvate kinase. AID 361. 1.2% of 51,000 active. partly purified Bacillus stearothermophilus pyruvate kinase, luminescence ATP production; ribose 5-phosphate activator present at AC10. Potency, µM; in the data active means potency below about 11 µM; inconclusive means mostly about 12 µM to 25 µM; inactive means weaker than that;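 the screen sought inhibitors and activators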;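 also: potency is read from the fitted curve at half-maximal effect; scaled between full activation by ribose 5 phosphate and full inhibition by luteolin; about four in five hits inhibit and the cells do not say which; series up to 57 µM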
# * marks the source's active call; other numbers are inactive results; i = inactive; ? = inconclusive; / = no result given.
YjeE inh	Bst PK mod	structure
i	>57	COc1cccc(C2=NOC(C(=O)Nc3ccc(C(C)=O)cc3)C2)c1 (stereo not given)
i	>57	COc1ccc(-c2c3c(=O)n(C)c(=O)n(C)c3c3nnc4ccccc4n23)cc1
i	>57	COc1ccc(CCNC(=O)c2ccc3c(c2)NC(=O)C(N2CCOCC2)S3)cc1OC (stereo not given)
i	>57	CCOC(=O)N1CCN(C(=O)CSc2nnc(-c3ccc(Cl)s3)o2)CC1
i	/	Cc1[nH]nc2c1/C(=N\O)CC(C)(C)C2
i	>57	CCOC(=O)N1CCN(C(=O)CN(C)S(=O)(=O)c2ccc3c(c2)C(C)(C)C(=O)N3C)CC1
i	>57	Nc1nnc(-c2ccncc2)s1
i	/	c1ccc(-c2cc3c(ccc4nonc43)nn2)cc1
i	>57	O=C(CCN1C(=O)COc2ccccc21)NCCN1CCN(c2ccccc2F)CC1
i	>57	Cc1ccc(C(=O)NC2CC(C)(C)NC(C)(C)C2)cc1C
i	/	COc1ccc(Oc2ncc3nc(-c4cc(F)cc(F)c4)c(=O)n(CCC#N)c3n2)cc1
i	>57	CCC1CCCCN1C(=O)N[C@@H](Cc1ccccc1)C(=O)O (stereo not given in full)
i	>57	CCn1c(=O)n(CC)c2cc(S(=O)(=O)NCCOc3ccccc3)c(C)cc21
i	/	CCOC(=O)N1CCN(CCC(=O)Nc2ccc(OC)cc2)CC1
i	>57	Cc1ccc(S(=O)(=O)NCCCCC(NC(=O)OC(C)(C)C)C(=O)O)cc1 (stereo not given) (tested in a mixture with another compound)
i	/	O=C(COc1nnnc2ccccc12)N1CCCc2ccccc21
i	>57	COc1ccc(C2(O)CCN(C(=O)c3c(F)cccc3F)CC2)cc1
i	/	O=Nc1ccc(Nc2ccccc2)cc1
i	/	COc1cccc(Cn2c(=O)c(C)nc3cnc(N(C)C)nc32)c1
i	/	Cn1cccc1C(=O)N1CCC[C@@]2(CCN(c3ccccn3)C2)C1
i	>57	COC(=O)C1=CN(C)C=C(C(=O)OC)C1c1ccc(O)c(OC)c1
i	/	c1ccc2c(c1)c1ccccc1n2Cn1c2ccccc2c2ccccc21
i	>57	O=C1NCCCC1C(=O)Nc1cccc(C(F)(F)F)c1 (stereo not given)
i	>57	CCN(CC)S(=O)(=O)c1cc(C(=O)Nc2nncs2)c(Cl)cc1Cl
i	/	Cn1cc(S(=O)(=O)N2CCc3ccccc3C2)c(=O)n(C)c1=O
i	>57	O=C(Nc1ccccc1C(=O)NCC1CCCO1)c1ccco1 (stereo not given)
i	/	CCOC(=O)C1CCCN(C(=O)c2ccc(OC(C)=O)cc2)C1 (stereo not given)
i	>57	CC1=C(C(=O)OC(C)C)C(c2cccc(F)c2)N2C(=O)C(C)SC2=N1 (stereo not given)
i	>57	COc1ccc(-n2cnnc2SCc2cnc(-c3ccccc3)s2)cc1
i	/	CC(=O)c1c(N2CCN(c3ccccc3)CC2)nc(=S)n(-c2ccccc2)c1C
i	>57	CCOC(=O)N1CCN(C(=O)C2CCC(C(=O)N3CCN(C(=O)OCC)CC3)CC2)CC1 (stereo not given)
i	>57	COc1ccc(N2CCN(Cc3nc(N)nc(Nc4ccccc4OC)n3)CC2)cc1
i	/	Cc1ccnc2c(N3C(=O)C4C5C=CC(C5)C4(C)C3=O)cccc12 (stereo not given)
i	>57	O=C(CCCC(=O)N(CC(=O)NC1CCCC1)Cc1ccc(F)cc1)Nc1ccccn1
i	>57	COC(=O)C1=C(C)N(c2cccc(C(C)=O)c2)C(=O)C1
i	/	Cn1nc(-c2ccc(Cl)cc2)c2cc(C(=O)N3CCN(C(=O)c4ccco4)CC3)sc21
i	>57	CCOc1cc(NC(=O)c2ccco2)c(OCC)cc1NC(=O)CCC(=O)NCc1cccnc1
i	/	COC(=O)Nc1ccc2c(c1)ncn2C1CCCCC1
i	>57	CC(NC(=O)OC(C)(C)C)C(=O)N1CCCC1C(=O)NC(Cc1ccccc1)C(N)=O (stereo not given)
/	>25.6	Cc1ccc2cc(CN(C(=O)c3ccco3)c3ccccc3)c(=O)[nH]c2c1
i	>57	Cc1ccc(-c2nn3c(C)nnc3s2)cc1NC(=O)c1ccc(-c2ccc(Cl)cc2Cl)o1
i	>57	Cc1ccc(C)c(N(CC(=O)N(C)C)S(C)(=O)=O)c1
/	>11.4	CN1CCN(Cc2c(O)c(Cl)cc3c(-c4ccccc4)cc(=O)oc23)CC1
i	>57	C=CCn1c(NCCOC)nc2c1c(=O)n(C)c(=O)n2C
i	/	CCC(C(=O)N1CCc2cc(OC)c(OC)cc2C1)c1ccccc1 (stereo not given)
i	/	CCOc1ccc2nc(NS(C)(=O)=O)sc2c1
i	>57	COC(=O)CCC/C=C1/SCC(NC(=O)c2ccccc2)C1O (stereo not given)
i	>57	O=c1c2ccccc2n(Cc2cccc(F)c2)c(=O)n1C1CCCC1
i	i	Cc1ccc2nsnc2c1S(=O)(=O)NCc1ccncc1
i	>57	COC(=O)COc1ccc(S(=O)(=O)Nc2ccccc2SC)cc1
i	/	CCOC(=O)Nc1cc(=O)c2ccccc2o1
i	/	C#CCCCCCCCCCCCCCCCC(=O)O
i	>57	OC(COCc1ccco1)CN1CCN(C(c2ccccc2)c2ccccc2)CC1 (stereo not given)
i	>57	O=C(CN1CCOCC1)Nc1ccc(Br)cn1
i	/	O=C(Nc1cc(Cl)ccc1Cl)c1noc2c1CCCC2
i	/	CCOC(=O)Cc1csc(NC(=O)CN(C)S(=O)(=O)c2cccc3cccnc23)n1
i	>57	O=C(NCc1cccs1)c1noc2c1CCCCC2
i	>57	COc1cccc(C2Nc3ccccc3C(=O)N2O)c1O (stereo not given)
i	>57	CC(C)CC(NC(=O)C1CCCN1C(=O)OC(C)(C)C)C(=O)NCC(N)=O (stereo not given)
i	/	Cc1cccc(NC(=O)Nc2cccc(C#N)c2)n1

# (cont.)
YjeE inh	Bst PK mod	structure
i	>57	CN1CCN(/C=C2\SC(=S)NC2=O)CC1
i	>57	Cc1ccccc1CS(=O)(=O)CCC(=O)NCCCN1CCOCC1
i	>57	c1cncc(-c2nc3c4ccccc4nc(N4CCC(N5CCCCC5)CC4)n3n2)c1
i	>57	COc1ccc(-n2ccnc2SCC(=O)NCc2ccc3c(c2)OCO3)cc1
/	>25.6	COn1c(=S)[nH]c2ccccc2c1=O
i	>57	O=C(Nc1ccccc1C(=O)N1CCCCC1)c1cccc(S(=O)(=O)N2CCOCC2)c1
i	>57	COc1cc(OC)cc(-c2nc(-c3ccccc3OC)no2)c1
i	>57	Cc1cc(C(=O)NCc2ccccc2)no1
i	>57	Cc1cc(C)c2cc(CN(Cc3nnnn3C3CCCCC3)CC3CCCO3)c(=O)[nH]c2c1 (stereo not given)
i	/	CCOC(=O)N/C(N)=N/c1nc2ccccc2s1
i	/	CCN1C(=O)/C(=C/N(C)c2ccccc2)OC1=S
i	>57	C=CCSc1nc2c(c(=O)[nH]c(=O)n2C)n1C(C)C
i	>57	CCSc1nc(-c2ccccc2)c(C#N)c(=O)[nH]1
i	>57	COc1ccc(C2CC(=O)N3CN(Cc4ccco4)CSC3=C2C#N)cc1 (stereo not given)
i	/	COc1ccccc1C1N(c2cc(Cl)ccc2OC)C(=O)C2CCCN21 (stereo not given)
i	/	COC(=O)N1CCC2(CCCN(c3ccncc3)C2)CC1
i	>57	c1ccc(-n2nnnc2SCc2cn3cccnc3n2)cc1
i	>57	CCOC(=O)c1ccc(NC(=O)CCNc2c(N3CCCC3)c(=O)c2=O)cc1
i	/	CCOC(=O)N1CCN(c2c(NCc3ccccn3)c(=O)c2=O)CC1
i	/	O=C(Nc1ccc2c(c1)OCO2)Nc1ccc(Br)cn1
i	>57	O=C(NC1CCCC1)C1CC(=O)N(CCc2ccccc2)C1 (stereo not given)
i	>57	Cn1c(CN2CCOCC2)nnc1SCC(=O)NC1CCCCC1
i	/	CCn1cc(Br)c(C(=O)Nc2ccc(F)c(Cl)c2)n1
i	>57	COc1ccc2nc(SCC(N)=O)[nH]c2c1
i	>57	COC(=O)c1ccccc1S(=O)(=O)N(CCCN1CCOCC1)Cc1cccs1
i	>57	Cc1cc(C)cc(OCCCC(=O)O)c1
i	>57	CC(C)c1[nH]nc2c1C(c1ccc(OC(=O)c3ccco3)cc1)C(C#N)=C(N)O2 (stereo not given)
i	/	O=C(Nc1ccc2c(c1)oc1ccccc12)c1cccnc1
i	/	Cc1ccc(C(=O)NCCNC(=O)CN2CCCC2)cc1
i	>57	Cc1cc(C(=O)O)sc1C
i	>57	COc1ccc2c(-c3ccccc3)cc(N3CCOCC3)nc2c1
i	>57	O=C(Nc1nc2ccccc2[nH]1)C1CC(=O)N(c2ccc3c(c2)OCCO3)C1 (stereo not given)
i	/	NC(=O)c1cccc(N)c1
i	/	CN(C)c1ccc(C(=S)N2CCOCC2)cc1Br
i	>57	Cn1c(=O)[nH]c(=O)c2c1nc(N1CCOCC1)n2CC(O)COc1ccc2ccccc2c1 (stereo not given)
i	>57	COc1ccc(S(=O)(=O)N2CCN(C(=O)c3cccs3)CC2)cc1OC
i	/	COc1ccc(-c2nc3cnc(N4CCN(C)CC4)nc3n(C)c2=O)cc1
i	/	O=c1c2nnn(Cc3ccccc3)c2ncn1C/C=C/c1ccccc1
i	/	CCn1c(CCCNC(=O)c2cccs2)nc2ccccc21
i	/	O=C1CCn2nc(-c3ccc(Cl)cc3)cc2N1
i	>57	Oc1[nH]c2ccccc2c1OCc1ccncc1
i	i	O=C(O)c1c(F)c(F)cc2ccccc12
i	>57	CCn1c(COc2ccc3c(c2)CCCC3)nnc1SCC(=O)Nc1nccs1
i	/	COC(=O)c1ccc(C(NC(=O)OCc2ccccc2)/C(=C/[C@@H](C)C(=O)NCc2ccc(C)o2)c2cccnc2)cc1 (stereo not given in full)
i	/	Clc1ccc(Nc2nc(NCCN3CCOCC3)nc(N3CCOCC3)n2)cc1
i	/	CC1CCN(c2nc3c(c(=O)[nH]c(=O)n3C)n2Cc2ccccc2Cl)CC1
i	/	Cc1cc(=O)[nH]c(=S)[nH]1
i	>57	Cc1cc(NCc2ccccc2Cl)n2nnnc2n1
i	/	Cn1c(C(=O)N2CCN(Cc3ccccc3)CC2)cc2c(=O)n(C)c3ccccc3c21
i	>57	CCC(=O)N(Cc1cc2c(C)cc(C)cc2[nH]c1=O)C1CCCCC1
i	?	Cc1ccc(C(=O)Oc2ccc3c(c2)ncn3C)cc1
i	>57	Cc1csc(C2=C(O)CN(CCc3ccccc3)C2=N)n1
i	/	Nc1nc(-c2ccc(Br)s2)c(Br)s1
i	>57	CC(C)N(C(=O)CSc1nn2c(=O)c(C(C)(C)C)nnc2s1)c1ccccc1
i	/	Cc1cccc(-n2c(N)cc(=O)[nH]c2=S)c1
i	>57	Cc1ccc(C(c2nnnn2CC2CCCO2)N2CCN(c3cccc(C)c3C)CC2)cc1 (stereo not given)
i	/	COC(=O)C1CCN(C(=O)c2ccccc2NC(C)=O)CC1
i	/	COc1ccc2c(=O)cc(-c3ccc(O)cc3)oc2c1
i	/	CCN1CCN(c2cc(=O)n(C3CCCCC3)c(=O)[nH]2)CC1
i	/	c1cncc(CNc2ncnc3ccc(-c4cccnc4)cc23)c1

# (listing goes on)
YjeE inh	Bst PK mod	structure
i	i	Cn1cnc2c1c(=O)n(Cc1cccc(Br)c1)c(=O)n2C
i	>57	Cc1csc(NC(=O)C2CCCN2C(=O)OCC(C)C)n1 (stereo not given)
i	>57	Cn1c(Cn2cnc3ccccc32)nnc1SCC(=O)CC(=O)Nc1ccccc1
i	>57	COc1ccc(NC(C)=O)cc1NC(=O)CSc1nc2ncccc2[nH]1
i	/	c1ccc2c(c1)-c1cccc3c1c-2cc1ccccc13
i	>57	O=C(c1ccccc1)N1CCN(c2ccccc2F)CC1
i	>57	O=C(OCc1ccccc1F)c1ccc2c(c1)OCCO2
i	>57	O=C(Cn1cnc2c(cnn2-c2ccccc2Cl)c1=O)N1CCc2ccccc21
i	>57	O=S(=O)(Nc1cccc(C(F)(F)F)c1)c1cccnc1
i	>57	CCc1ccccc1NC(=O)CSc1nnc([C@H](CCSC)NC(=O)OC(C)(C)C)o1

# Of the compounds above, these have two or more sulfur atoms.
YjeE inh	Bst PK mod	structure
i	>57	CCOC(=O)N1CCN(C(=O)CSc2nnc(-c3ccc(Cl)s3)o2)CC1
i	>57	CCN(CC)S(=O)(=O)c1cc(C(=O)Nc2nncs2)c(Cl)cc1Cl
i	>57	COc1ccc(-n2cnnc2SCc2cnc(-c3ccccc3)s2)cc1
i	/	CCOc1ccc2nc(NS(C)(=O)=O)sc2c1
i	i	Cc1ccc2nsnc2c1S(=O)(=O)NCc1ccncc1
i	>57	COC(=O)COc1ccc(S(=O)(=O)Nc2ccccc2SC)cc1
i	/	CCOC(=O)Cc1csc(NC(=O)CN(C)S(=O)(=O)c2cccc3cccnc23)n1
i	>57	CN1CCN(/C=C2\SC(=S)NC2=O)CC1
i	>57	COC(=O)c1ccccc1S(=O)(=O)N(CCCN1CCOCC1)Cc1cccs1
i	>57	COc1ccc(S(=O)(=O)N2CCN(C(=O)c3cccs3)CC2)cc1OC
i	>57	CCn1c(COc2ccc3c(c2)CCCC3)nnc1SCC(=O)Nc1nccs1
i	/	Nc1nc(-c2ccc(Br)s2)c(Br)s1
i	>57	CC(C)N(C(=O)CSc1nn2c(=O)c(C(C)(C)C)nnc2s1)c1ccccc1
i	>57	CCc1ccccc1NC(=O)CSc1nnc([C@H](CCSC)NC(=O)OC(C)(C)C)o1

# This is a subset; count on the stated rates, not on these rows.
